# NPYLR7 ag: activates Aedes aegypti NPYLR7 receptor; HEK293T NPYLR7/Galpha15, GCaMP6s calcium fluorescence; 270,000 compounds, 0.15% hits; AID 1259423; activation, % at 10 µM; in the data active = activation above about 40%;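 note: 0% = vehicle and 100% = reference agonist at the receptor; some compounds past the cut are filed as inactive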
# NPYLR7 ag max-min: recorded beside NPYLR7 ag, whose call it bears; activation, %; measured here: Max-Min RFU normalised activation; some inactives read as strong as hits;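 span of the calcium signal over five minutes; 0% = vehicle and 100% = native peptide agonist; compound fluorescence can raise it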
# * hit, by the source's call; & = joins results of further samples.
# Every second line gives: NPYLR7 ag | NPYLR7 ag max-min
CCOc1cc([N+](=O)[O-])cc(/C=N\Nc2nc(Nc3ccccc3)nc(N3CCOCC3)n2)c1O
→ -9 | -15
CCOC(=O)CSc1nnc(-c2ccncc2)n1-c1ccc(OC)cc1
→ -4 | -11
CC(C)CCC(C)NC(=O)Cn1c2ccccc2c(=O)c2ccccc21 (stereo not given)
→ 7 | 4
CCOC(=O)c1cc(-c2ccc(N3CCN(C(=O)c4oc5ccccc5c4C)CC3)cc2)n(-c2ccccc2C)n1
→ 21 | 12
Oc1cccc(Nc2nccc3[nH]c(-c4cccc(F)c4)cc23)c1
→ -6 | -16
COc1cc(C)ccc1-c1c(-c2ccccc2)ncn1CCNC(=O)C(C)C
→ -3 | -5
COc1ccc(-c2noc(-c3ccc(N(C)CCc4cn[nH]c4)nc3)n2)cc1
→ 14 | 1
Cc1ccc2oc(-c3cccc(NC(=O)c4ccc(Cl)c([N+](=O)[O-])c4)c3)nc2c1
→ 12 | 9
O=C(c1ccc2oc(CCCc3ccccc3)nc2c1)N1CCCCO1
→ 3 | 2
COc1c(Br)cc(Br)cc1CNC(C)C(C)C (stereo not given)
→ 4 | -4

# Continued, starting with the last four of the part before.
# Every second line gives: NPYLR7 ag | NPYLR7 ag max-min
COc1ccc(-c2noc(-c3ccc(N(C)CCc4cn[nH]c4)nc3)n2)cc1
→ 14 | 1
Cc1ccc2oc(-c3cccc(NC(=O)c4ccc(Cl)c([N+](=O)[O-])c4)c3)nc2c1
→ 12 | 9
O=C(c1ccc2oc(CCCc3ccccc3)nc2c1)N1CCCCO1
→ 3 | 2
COc1c(Br)cc(Br)cc1CNC(C)C(C)C (stereo not given)
→ 4 | -4
NC(=O)c1c(NC(=O)Cn2cc(C(F)(F)F)cc(Cl)c2=O)sc2c1CCC2
→ 7 | 12
C=CC[C@@H]1CC=C[C@@H](C)N1C(=O)c1cnc2sc(C)c(C)n2c1=O
→ 19 | 15
Cc1cc(C2CCCN2C(=O)c2cccc(NC(=O)C3CC3C)c2)no1 (stereo not given)
→ 6 | 1
CC(C)(C(=O)Nc1ccc(CN2C(=O)CCC2=O)cc1)c1ccccc1
→ -4 | -1
CN(C)CCNc1nc(Nc2ccc(Cl)cc2)c2nccnc2n1
→ -3 | 11
O=C(Nc1sc2c(c1C(=O)N1CCOCC1)CCCC2)c1ccccc1F
→ 4 | 5
O=C(O)CC1CCS(=O)(=O)C1 (stereo not given)
→ 2 | 7
COc1ccc(NS(=O)(=O)c2ccc3c(c2)NC(=O)CC(=O)N3)cc1
→ 15 | 4
CCOc1ccccc1N1C(=O)CSC1c1ccc(NC(=O)C2CCC2)cc1 (stereo not given)
→ -3 | 1
Cc1ccc(-c2ccc(-n3ccnc3C)nn2)c(-n2nc(C)cc2C)c1
→ -4 | -6

# Next section.
# Every second line gives: NPYLR7 ag | NPYLR7 ag max-min
Cc1ccccc1CN1CCC(CNC(=O)CN2CCCC2=O)C1 (stereo not given)
→ 22 | 13
O=C(NN=Cc1ccc(OC(=O)c2ccccc2)cc1)c1cccnc1
→ 3 | 1
CCOc1cc2c(cc1OCC)CN(C(=O)COc1cccc(C)c1)CC2
→ 6 | 6
CCOC(=O)C1CCN(Cn2nc(-c3ccccc3C)oc2=S)CC1
→ 4 | -1
c1ccc(C2SC3CCCCC3S2)cc1 (stereo not given)
→ -8 | -11
COc1ccc(-c2csc(=Nc3cccc(OC)c3)n2-c2ccccc2Oc2ccccc2)cc1
→ -9 | -10
O=C(CSc1nnc2n1CCCCC2)N1N=C(c2cccs2)CC1c1ccco1 (stereo not given)
→ -2 | -1
CCCCC(=O)Nn1cnc2c(cnn2C(C)(C)C)c1=O
→ -1 | -3
CCN(CC)CC(O)Cn1c(C)c(C)c2ccccc21 (stereo not given)
→ 5 | 2
Cc1cccc(CSc2nc(Oc3ccc([N+](=O)[O-])cc3)cc(C(F)(F)F)n2)c1
→ 1 | 4

# (continued)
# Every second line gives: NPYLR7 ag | NPYLR7 ag max-min
Cc1ccccc1Cn1c(=O)c2c(nc3n(CCCn4ccnc4)c(C)cn23)n(C)c1=O
→ 9 | 12
CN(C)c1ccc(-n2c(C3(c4ccc(Cl)cc4)CCC3)n[nH]c2=S)cc1
→ -6 | -9
CCn1ccnc1CN(C)C(=O)c1ccc2nc(-c3cccc(OC)c3)oc2c1
→ 2 | -1
COc1ccc(OC)c(NC(=O)C2CC=CCC2C(=O)N2CCc3c([nH]c4ccccc34)C2)c1 (stereo not given)
→ -11 | -21
N#Cc1nc2c(C#N)c3ccc4ccccc4n3c2nc1C#N
→ 5 | 4
O=C(O)[C@@H]1CCCN1C(=O)c1ccc(CSc2ncccn2)o1
→ 21 | 12
COc1ccc(C(=O)N2CCC(n3nccc3NC(=O)C3CC3)CC2)c(OC)c1OC
→ 0 | -3
c1ccc(CNc2ncc(CN3CCC4(CCOCC4)CC3)cn2)cc1
→ -2 | -3
Cc1ccc(C)c(S(=O)(=O)NC(CN2CCCC2=O)c2ccccc2)c1 (stereo not given)
→ 8 | 7
COc1cccc2c(C)c(C(=O)N3CCN(C(C)(C)C(N)=O)CC3)oc12
→ 3 | 0

# (continued)
# Every second line gives: NPYLR7 ag | NPYLR7 ag max-min
Cc1cc(CNC(=O)NCCN(C)C(=O)OC(C)(C)C)no1
→ 11 | 7
COc1cc(S(=O)(=O)N2CC(C)c3ccccc32)cc(C(=O)O)c1OC (stereo not given)
→ -2 | -6
O=C(/C=C/c1ccc(F)cc1)N1CCC(n2c(-c3ccccc3)nc3ccc(F)cc32)CC1
→ 19 | 12
O=C(C1CC1)N1CCN(Cc2nc(-c3cccs3)cs2)CC1
→ -10 | -17
CCOC(=O)CCC(=O)NCc1cccc(-c2ncc(-c3cc(OC)ccc3OC)[nH]2)c1
→ 0 | 0
COc1ccc(C(CC(=O)NCc2ccc3c(c2)OCO3)c2cn(C)c3ccccc23)cc1OC (stereo not given)
→ -3 | 5
O=C(Cc1nc(-c2cncc(Br)c2)n[nH]1)NCCc1ccccc1
→ 0 | -5
Cc1cc(C(=O)NN=C2CC(=O)CC(C)(C)C2)c(C)o1
→ -5 | -5
CCOc1cccc2c1OC1(CCN(C(C)=O)CC1)N1N=C(c3ccc(C)c(C)c3)CC21 (stereo not given)
→ 10 | 5
CCCNC(=O)N(CCN1CCOCC1)Cc1nccn1Cc1c(C)cc(C)cc1C
→ 3 | 11

# Additional compounds follow.
SMILES,NPYLR7 ag,NPYLR7 ag max-min
Cc1nc2n(n1)C(=O)C(C(c1ccc(F)cc1)N1CCc3ccccc3C1)S2 (stereo not given),-3,-4
COc1ccc(-c2nnc(SCC(=O)NCC(C)C)o2)c(OC)c1,-1,-1
CCc1nc2c(OCC(=O)N(C)C)cccn2c1N(C=O)Cc1ccc(OC)cc1,3,0
O=S(=O)(c1cccs1)N(Cc1cccs1)c1ccc2c(c1)OCCO2,3,6
CC1N=NC(=NNC(=O)C2(c3ccc(Br)cc3)CC2)NC1=O (stereo not given),-1,-4
CCONC(=O)C1CCCOC1c1ccccc1 (stereo not given),3,2
CN(C)c1ccc(C2CC(c3ccc4ccccc4c3)=NN2C(=O)c2ccccc2)cc1 (stereo not given),11,7
Cc1nc(CN(C)Cc2c(-c3ccccc3)nc3ccccn23)no1,4,0
CCOC(=O)c1cc(C(C)(C)C)n(C2CCN(C(=O)CCc3ccco3)CC2)n1,2,0
CC(C)CNC(=O)Cn1cnc2sc3c(c2c1=O)CCC3,-7,2
CC(C(=O)O)N1C(=O)/C(=C\c2cccc(O)c2)SC1=S (stereo not given),-5,-10
O=C(CCS(=O)(=O)C1CCCC1)N1CCC(O)(C(F)(F)F)C1 (stereo not given),11,9
O=C(CNCC1(c2ccc(F)cc2)CCOC1)Nc1cnccn1 (stereo not given),13,0
Cc1csc2ncc(C(=O)N(C)c3ccccc3)c(=O)n12,7,2
CCCC1=NN(C(C)=O)C(C(=O)N2CCN(CCN(C)C)CC2)O1 (stereo not given),0,18
Cc1cc(C)nc(Nc2n[nH]c(COc3ccccc3)n2)n1,0,-2
COc1cc(C)c(CNC2CCCC2(C)CO)cc1OC (stereo not given),1,0
Cc1ccn2c(=O)c(NC(=O)C(c3ccccc3)c3ccccc3)c(C)nc2c1,3,2
CCOc1cccc(-c2cc(C(=O)N3CCN(Cc4ccccc4)CC3)c3ccccc3n2)c1,1,-1
CC(On1nnc2ccc(Cl)cc21)C(=O)NC(=O)NC1CCCCC1 (stereo not given),2&1,9&-7
COC(=O)CC1C(=O)NCCN1CC(=O)N1C(C)CCCC1C (stereo not given),-1,7
COc1cccc(-c2nc3ccccn3c2NC(=O)CC(C)CC(C)(C)C)c1 (stereo not given),-15,-15
Cc1cc(C)nc(NS(=O)(=O)c2ccc(NC(=O)c3ccc(F)cc3)cc2)n1,4,4
O=C(COc1ccc([N+](=O)[O-])cc1)Nc1ccc(S(=O)(=O)N2CCOCC2)cc1,-1,-3
C/C=C/C(=O)Nc1cccc(-c2cccc(-c3ccc4c(c3)OCCO4)n2)c1,-3,-5

# The final six entries of the part above are carried over, then new ones follow.
SMILES,NPYLR7 ag,NPYLR7 ag max-min
CC(On1nnc2ccc(Cl)cc21)C(=O)NC(=O)NC1CCCCC1 (stereo not given),2&1,9&-7
COC(=O)CC1C(=O)NCCN1CC(=O)N1C(C)CCCC1C (stereo not given),-1,7
COc1cccc(-c2nc3ccccn3c2NC(=O)CC(C)CC(C)(C)C)c1 (stereo not given),-15,-15
Cc1cc(C)nc(NS(=O)(=O)c2ccc(NC(=O)c3ccc(F)cc3)cc2)n1,4,4
O=C(COc1ccc([N+](=O)[O-])cc1)Nc1ccc(S(=O)(=O)N2CCOCC2)cc1,-1,-3
C/C=C/C(=O)Nc1cccc(-c2cccc(-c3ccc4c(c3)OCCO4)n2)c1,-3,-5
CN(C)CCCN1C(=O)C(=O)C(=C(O)c2ccc(Cl)cc2)C1c1ccccc1F (stereo not given),0,0
CN(C)CCN(Cc1c(-c2ccccc2)noc1N1CCc2ccccc2C1)C(=O)c1cccs1,11,13
O[C@H]1CN(c2nccc(CCC(F)(F)F)n2)C[C@@H]1N1CCOCC1,16,15
Cc1nn(S(=O)(=O)c2ccc(Br)cc2)c(C)c1S(=O)(=O)N1CCCC(C)C1 (stereo not given),4,-1
CCc1nc2c(OCc3ccc(Cl)cc3)cccn2c1N(C)C(=O)c1cccs1,12,-1
O=c1nc(Nc2ccccc2)ccn1-c1nc(-c2ccccc2)oc1-c1ccccc1,-2,-3
COc1ccc(C(C)(NC(C)=O)c2nc(-c3cncnc3)cs2)cc1 (stereo not given),6,0
Cc1ccc(C(C)(C)C(=O)Nc2ccc(N3C(=O)CCC3=O)c(C)c2)cc1,1,-6
Cc1nccc(CNC(=O)Nc2ccc(OC(C)C)c(C)c2)n1,2,0
CCC1CN(Cc2nnc(-c3ccco3)o2)CCC(=O)N1Cc1ccccc1 (stereo not given),4,1
COc1nn(C)cc1C(=O)NC1CCCCC1C (stereo not given),1,2
CC(C)c1nnc(CNc2cc(F)ccc2F)o1,8,1
O=C(CC1C(=O)NCCN1CC(c1ccccc1)c1ccccc1)NCCCn1cccn1 (stereo not given),10,9
Cc1ccccc1NC(=O)Cn1nc(C2CC2)c2cnn(-c3ccccc3)c2c1=O,7,4
OC(c1ccc(F)c(F)c1)c1nc(-c2ccoc2)cs1 (stereo not given),9,4
Cc1c(C(=O)NCCN2CCCC2)cc(-c2ccc(Cl)cc2)n1-c1ccccc1,-3,5
O=C(c1cc2n(n1)CCN(C(=O)c1ccc(CO)o1)C2)N1CCCC1,26,16
CC(C)SC(NC(=O)OCc1ccccc1)C(=O)NCc1ccccn1 (stereo not given),-15,-20
CC1CN(c2cc(Cl)nc(SCC(=O)N3CCN(c4ccc([N+](=O)[O-])cc4)CC3)n2)CCN1C(=O)C1CCCCC1 (stereo not given),21,28
O=C(Nc1cccc(-c2ccc(F)cc2)c1)C1CCCN(C(=O)CN2CCCC2=O)C1 (stereo not given),0,-4
COCCn1c(C)cn2c3c(=O)n(CC(C)=O)c(=O)n(C)c3nc12,-6,-6
CCC(=O)C1=C(c2ccc([N+](=O)[O-])cc2)N(C(=O)CC)n2c(C)nnc2S1,3,0
CCn1c(=O)n(Cc2ccc(F)cc2Cl)c2cc(S(=O)(=O)N(C)C)ccc21,-3,-3
CCCc1noc(CCCC(=O)Nc2ccc(F)cc2NC(C)C)n1,9,6
Cc1cc(C(=O)N(Cc2ccccn2)c2nc3c(F)cc(F)cc3s2)n(C)n1,3,-1

# The list goes on.
SMILES,NPYLR7 ag,NPYLR7 ag max-min
Cc1nn(-c2ccc(F)cc2)c(C)c1C(=O)N1[C@@H]2CC[C@H]1CNC(=O)C2,4,3
COc1ccc2[nH]c(=O)c(CN(C)Cc3noc(C(C)C)n3)cc2c1,3,-1
Cc1[nH]n(-c2ccccc2)c(=O)c1C(C[N+](=O)[O-])c1ccccc1Cl (stereo not given),2,-3
CCOC(=O)c1ccc2c(c1)nc(SCc1ccc(Br)cc1F)n2Cc1ccccn1,-4,-6
CC(=O)Oc1cc2c(c(C)c1OC(C)=O)CC=C1[C@@]2(C)CC[C@@]2(C)C3C[C@](C)(C(=O)O)CC[C@]3(C)CC[C@]12C (stereo not given in full),-6,-9
N#C/C(=C\c1ccc(N2CCCCC2)s1)c1cccc(Cl)c1,28,26
CCCCCCc1ccc(C(=O)N2CCC(C(=O)NCCNC(=O)c3ccccc3)CC2)cc1,22,25
COCCCN(CC(=O)N(CCc1c[nH]c2ccccc12)Cc1ccccc1)C(=O)Nc1ccc(Cl)cc1Cl,25,30
N#Cc1cccc(C(=O)Nc2cccc(Cl)c2N2CCOCC2)c1,-3,-3
Cc1ccc2oc(-c3cc(NC(=O)c4cccc(F)c4)ccc3Cl)nc2c1,-13,-22
O=C(O)c1cn[nH]c1-c1ccccc1,-5,-7
CC(C)CNC(=O)C(=O)NCC1CCCO1 (stereo not given),1,2
Cc1cc(-c2nnc(N)o2)nn1C,1,1
CC(C)(C)NC(=O)C1CSCN1C(=O)c1cn2cccnc2n1 (stereo not given),2,0
Cc1ccc(C(=O)NCCc2nnc3ccc(SCC(=O)Nc4cc(C)cc(C)c4)nn23)cc1,2,-14
O=C(NCC1CCCN(Cc2ccc3nonc3c2)C1)c1ccc(F)cc1 (stereo not given),14&3,13&-1
O=C(NCC1(c2ccccc2Br)CC1)c1csnn1,1,1

# Bioassay records as filed in PubChem BioAssay.

# A portion of the library (hit frequency here may not be typical).
